RanGTP-Impb inh = disruptors of Ran-importin-beta complex formation – biochemical, FRET, CFP-Ran, YFP-importin-beta, homogeneous, primary screen. cell-free CFP-Ran/YFP-importin-beta FRET ratio. inhibition, % (concentration not given with the values). actives 1.1% (n = 300,000). AID 2216;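 active = most replicates above 15%; inconclusive = exactly half above 15%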;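 note: 0% = DMSO wells and 100% = Ran loaded with GDP instead of GTP; wells of about 40 µL received 100 nL stock; the first replicate is given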
FGF22 binding = FGF22 (human) thermal shift binding; Q9HCT0; recombinant FGF22 thermal shift, SYPRO orange fluorescence; percent of sucrose octasulfate shift, DMSO zero; calls only at 9.99 µM; actives 1.5% (n = 340,000); AID 651658;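 active = melting point raised past a set limit in the mean and every replicate; inconclusive = no clear call; three in four hits are not shown here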
Target sequence (Q9HCT0 whole entry, looked up): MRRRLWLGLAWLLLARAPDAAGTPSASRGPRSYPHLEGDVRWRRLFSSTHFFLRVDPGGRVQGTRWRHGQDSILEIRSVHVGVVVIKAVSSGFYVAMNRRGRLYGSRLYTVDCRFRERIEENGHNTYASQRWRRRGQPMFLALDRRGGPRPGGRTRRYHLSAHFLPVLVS
Calb FLC = C. albicans growth modulation with fluconazole. C. albicans CaCi-2 (fluconazole-resistant clinical isolate) + fluconazole, Alamar Blue growth, 48 h. growth inhibition, % (concentration not given with the values). actives 0.57% (n = 300,000). AID 1979;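 active = most replicates above 75%; inconclusive = exactly half above 75%; inactive = most below 75%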;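 note: all wells also contain fluconazole at 8 µg/ml as a sub-toxic cotreatment; 0% = median of DMSO wells and 100% = median of geldanamycin control wells; wells of about 8 µL received 7.5 nL stock; the first replicate is given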
ALR inh = inhibitors of human sulfhydryl oxidase ALR | purified ALR, DTT oxidation, H2O2 HRP-luminol luminescence | actives 3.8% (n = 290,000) | AID 485317 | P55789 | inhibition, % (concentration not given with the values);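 active = mean and each replicate at 75% or more; inconclusive = only one of the two met; inactive = neither met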;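 note: stock transfer was 7.5 nL into about 7.5 µL; 0% = neutral wells and 100% = wells with inactivated enzyme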
Target sequence (P55789 whole entry, looked up): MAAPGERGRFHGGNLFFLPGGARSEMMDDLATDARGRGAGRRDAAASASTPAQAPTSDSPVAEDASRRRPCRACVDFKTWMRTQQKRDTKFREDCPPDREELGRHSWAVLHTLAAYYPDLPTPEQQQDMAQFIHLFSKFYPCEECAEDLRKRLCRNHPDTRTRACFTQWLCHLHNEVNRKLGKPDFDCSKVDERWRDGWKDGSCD
Ecoli rRNA inh = inhibitors of bacterial rRNA selective over humanized ribosomes; E. coli WT GFP vs humanized-ribosome RFP mutants, fluorescence, 24 h; stronger effect = lower value; DMSO median 0, no signal -100; actives 1.6% (n = 350,000); GFP signal change (wild-type ribosome), % (test concentration not listed); AID 720706;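 active = significant combined selectivity score with lowered wild-type GFP, culture density cut under 30%, mutant RFP and density less affected; inactive = any of these conditions unmet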; note: one replicate is shown; some compounds called inactive have numbers as strong as hits
AF4-AF9 inh = inhibitors of human MLL-AF4/AF9 interaction; P42568; AlphaScreen, biotin-AF4 peptide binding to FLAG-AF9; inhibition, % at 10 µM; actives 0.47% (n = 350,000); AID 651704;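 active = every replicate reaching a set inhibition limit, whatever the replicate mean, cut at about 25% in these data; inconclusive = mean inhibition reaches that limit but some replicates miss it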;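 note: 0% = plate neutral control median and 100% = total signal loss; the record names both 10 and 1 µM as test concentration; the first replicate is given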
Target sequence (P42568 whole entry, looked up): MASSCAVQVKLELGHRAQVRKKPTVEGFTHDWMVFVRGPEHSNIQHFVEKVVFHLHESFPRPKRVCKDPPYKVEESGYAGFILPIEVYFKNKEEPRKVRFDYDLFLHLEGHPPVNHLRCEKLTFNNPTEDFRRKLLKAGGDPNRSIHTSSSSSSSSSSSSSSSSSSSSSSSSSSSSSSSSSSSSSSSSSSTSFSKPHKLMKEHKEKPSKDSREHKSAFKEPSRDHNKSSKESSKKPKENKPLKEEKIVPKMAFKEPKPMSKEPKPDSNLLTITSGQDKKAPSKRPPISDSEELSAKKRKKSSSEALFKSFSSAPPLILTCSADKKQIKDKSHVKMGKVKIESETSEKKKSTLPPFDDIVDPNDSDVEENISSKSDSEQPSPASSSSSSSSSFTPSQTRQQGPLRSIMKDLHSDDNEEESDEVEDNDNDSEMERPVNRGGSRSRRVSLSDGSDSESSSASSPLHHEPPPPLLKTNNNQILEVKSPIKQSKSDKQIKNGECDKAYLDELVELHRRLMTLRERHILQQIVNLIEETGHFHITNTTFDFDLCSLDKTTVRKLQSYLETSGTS
T cruzi repl = blocks replication of Trypanosoma cruzi | actives 1.4% (n = 300,000) | inhibition, % (concentration not given with the values) | T. cruzi beta-gal in NIH3T3, luminescence, 90 h;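 active = mean inhibition across valid replicates above about 55%, limit read from the data; inconclusive = mean below that limit but half or more replicates reach it; inactive = mean below it, under half of replicates reach it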;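 note: signal also drops with host cell toxicity which is not excluded here; 0% = plate median of DMSO wells and 100% = zero luminescence signal; higher percent means less beta-gal luminescence so fewer parasites; stock transfer was 50 nL into about 50 µL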
Beta apoptosis = blocks beta cell apoptosis. INS-1E cytokine-induced death, ATP luminescence, 48 h; percent of positive-control rescue, neutral wells zero. protection from apoptosis, % (concentration not given with the values). actives 0.8% (n = 300,000);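 active = all replicates at 75% or more, or half of them and the mean; inconclusive = half reach 75% but not the mean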;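 note: 0% = cytokine-treated negative control wells and 100% = positive control rescue; higher means more ATP so stronger rescue from cytokine killing; wells of about 40 µL received 100 nL stock; the first replicate is given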
Ecoli rRNA inh OD600 = second read-out of Ecoli rRNA inh, no call of its own (marks repeat the call); OD600 change, %; measured here: OD600 growth;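 optical density of the mix in the first replicate; 0 = DMSO median and -100 = no signal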
Ecoli rRNA inh RFP = second read-out of Ecoli rRNA inh, no call of its own (marks repeat the call); RFP signal change, %; measured here: RFP humanized mutant strains;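 first replicate; 0 = DMSO median and -100 = no signal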
The depositor's hits bear a star; i = inactive; ? = inconclusive; nt = not tested or not shown. Only part of the results is shown; rates above refer to the full screens.

#1 CC(NC(=O)COC(=O)c1ccc[nH]c1=O)c1ccccc1 (stereo not drawn)
#2 CC1=NN(C(=O)c2cccc(Cn3nc(C)c([N+](=O)[O-])c3C)c2)C(O)(C(F)(F)F)C1 (stereo not drawn)
#3 OCc1cn(-c2ccccc2)nc1-c1ccc(-c2nn(-c3ccccc3)cc2CO)cc1
#4 Cc1ccc(C)c(S(=O)(=O)N2CCCCC2CCNC(=O)C(=O)NCc2ccco2)c1 (stereo not drawn)
#5 O=C(CSC1=NS(=O)(=O)c2ccccc2N1)N1CCCCC1
#6 COc1ccc(C2CC(c3c(-c4ccccc4)c4cc(Cl)ccc4[nH]c3=O)=NN2S(C)(=O)=O)cc1 (stereo not drawn)
Compound,1,2,3,4,5,6
RanGTP-Impb inh,nt,6.0,-0.8,-1.2,0.6,-2.5
FGF22 binding,i,i,nt,i,i,nt
Calb FLC,nt,-19,-2,-15,-1,5
ALR inh,-3,-2,-2,-3,2,-20
Ecoli rRNA inh,7,-13,nt,-8,15,nt
Ecoli rRNA inh OD600,14,-11,nt,-23,19,nt
Ecoli rRNA inh RFP,-2.3,-3.1,nt,5.3,1.1,nt
AF4-AF9 inh,-4.8,6.7,nt,-12,-13,nt
T cruzi repl,nt,0,22,-9,-10,30
Beta apoptosis,-8,0,8,0,-3,8

#7 O=C(c1[nH]ncc1-c1cccc(Br)c1)C1CO1 (stereo not drawn)
#8 O=C(Oc1cccc(/C=N/Nc2nc(Nc3ccccc3)nc(N3CCOCC3)n2)c1)c1ccco1
#9 CCc1nnc(NC(=O)CSc2nnc(CNC(=O)c3ccccc3F)n2C)s1
#10 O=C(NNC(=O)c1ccccc1OCc1ccccc1)c1ccccc1O
#11 CC#CCCCC(=O)Nc1ccc(C(=O)O)cc1
#12 Cc1ccc(NC(=O)C2CCCN2C(=O)OCc2ccccc2)c(C)c1 (stereo not drawn)
Compound,7,8,9,10,11,12
RanGTP-Impb inh,2.0,0.3,-0.1,5.0,?,-5.1
FGF22 binding,i,nt,i,i,nt,i
Calb FLC,-2,16,4,-3,-9,4
ALR inh,13,-9,nt,-9,1,-6
Ecoli rRNA inh,-9,nt,6,0,nt,2
Ecoli rRNA inh OD600,-2,nt,9,3,nt,2
Ecoli rRNA inh RFP,0.7,nt,-1.7,-1.0,nt,-0.7
AF4-AF9 inh,0.4,nt,-0.8,-2.4,nt,0.0
T cruzi repl,8,40,8,30,-8,1
Beta apoptosis,-25,11,-13,86*,0,-13

#13 Cc1onc(-c2c(Cl)cccc2Cl)c1C(=O)NCc1cccs1
#14 Cc1cc(C)nc(NC(=S)Nc2cccc(F)c2)c1
#15 O=C(c1cccc(C(F)(F)F)c1)N1CCCCCC1
#16 c1ccc(OCCSc2nnnn2-c2ccccc2)cc1
#17 COCCNC(=O)C1CC(c2ccccc2C(F)(F)F)=NO1 (stereo not drawn)
#18 Cc1nc(SCc2cccnc2)[nH]c(=O)c1C
Compound,13,14,15,16,17,18
RanGTP-Impb inh,3.0,0.9,0.1,1.1,-0.3,0.0
FGF22 binding,i,i,nt,nt,i,nt
Calb FLC,2,-5,-8,-16,-9,2
ALR inh,-6,-14,-7,-5,nt,99*
Ecoli rRNA inh,nt,8,nt,nt,5,nt
Ecoli rRNA inh OD600,nt,3,nt,nt,9,nt
Ecoli rRNA inh RFP,nt,1.5,nt,nt,11,nt
AF4-AF9 inh,-4.8,-0.3,nt,nt,-1.4,nt
T cruzi repl,-4,4,-10,26,-4,-1
Beta apoptosis,-2,0,-7,3,11,-2

#19 COCCCn1c(=O)c2sccc2n(Cc2cc(C(=O)OC)ccc2OC)c1=O
#20 O=C(Cc1ccccc1)NNC1CC(=O)N(c2ccc(Cl)cc2)C1=O (stereo not drawn)
#21 CS(=O)(=O)NCc1nnc(SCc2c(F)cccc2Cl)o1
#22 O=C(Nc1ccc(Cl)c(Cl)c1)Nc1cc(C(=O)N2CCOCC2)ccc1N1CCCCC1
#23 CCNc1nc(SCC(=O)Nc2ccc(Cl)c(Cl)c2)nc(N2CCOCC2)n1
#24 COc1ccc(NS(=O)(=O)c2cc(S(C)(=O)=O)ccc2C)cc1
Compound,19,20,21,22,23,24
RanGTP-Impb inh,-0.6,-7.4,0.3,-1.1,-0.4,2.0
FGF22 binding,i,i,nt,nt,i,i
Calb FLC,23,-13,3,8,0,3
ALR inh,16,-6,-8,-6,-2,-9
Ecoli rRNA inh,-6,-2,6,nt,0,nt
Ecoli rRNA inh OD600,2,12,-5,nt,-6,nt
Ecoli rRNA inh RFP,-6.3,-2.3,2.2,nt,-0.6,nt
AF4-AF9 inh,-0.8,-0.7,5.4,nt,-1.3,3.0
T cruzi repl,12,-17,-1,-1,14,-4
Beta apoptosis,-1,-7,3,8,-3,1

With a hit mark in ALR inh (from the list above):
item | smiles | RanGTP-Impb inh | FGF22 binding | ALR inh | Ecoli rRNA inh | Ecoli rRNA inh OD600 | Ecoli rRNA inh RFP | AF4-AF9 inh
18 | Cc1nc(SCc2cccnc2)[nH]c(=O)c1C | 0.0 | nt | 99* | nt | nt | nt | nt

5 entries picked at random from the list so far, as already listed:
#24 COc1ccc(NS(=O)(=O)c2cc(S(C)(=O)=O)ccc2C)cc1
#19 COCCCn1c(=O)c2sccc2n(Cc2cc(C(=O)OC)ccc2OC)c1=O
#20 O=C(Cc1ccccc1)NNC1CC(=O)N(c2ccc(Cl)cc2)C1=O (stereo not drawn)
#21 CS(=O)(=O)NCc1nnc(SCc2c(F)cccc2Cl)o1
#23 CCNc1nc(SCC(=O)Nc2ccc(Cl)c(Cl)c2)nc(N2CCOCC2)n1
Compound,24,19,20,21,23
RanGTP-Impb inh,2.0,-0.6,-7.4,0.3,-0.4
FGF22 binding,i,i,i,nt,i
Calb FLC,3,23,-13,3,0
ALR inh,-9,16,-6,-8,-2
Ecoli rRNA inh,nt,-6,-2,6,0
Ecoli rRNA inh OD600,nt,2,12,-5,-6
Ecoli rRNA inh RFP,nt,-6.3,-2.3,2.2,-0.6
AF4-AF9 inh,3.0,-0.8,-0.7,5.4,-1.3
T cruzi repl,-4,12,-17,-1,14
Beta apoptosis,1,-1,-7,3,-3

(continued)
#25 COC(=O)c1[nH]c2cccc(OC)c2c1NC(=O)CN(C)CC1OCCO1
#26 CCn1nc(C)c(NC(=O)CC23CC4CC(CC(C4)C2)C3)c1C
#27 CCSc1ccc2nnc(-c3cccc(F)c3)n2n1
#28 O=C1N(CN2CCN(c3cccc(Cl)c3)CC2)c2ccccc2C12OCCCO2
#29 COc1ccc(Nc2sc(C(=O)c3ccc(Cl)cc3)c(N)c2C(=O)Nc2ccccc2OC)cc1
#30 CCN(CC)c1ccc(NC(=O)c2cnccn2)cc1S(=O)(=O)Nc1ccc(OC)cc1
Compound,25,26,27,28,29,30
RanGTP-Impb inh,-5.3,0.3,?,-0.3,4.0,-1.1
FGF22 binding,nt,i,nt,nt,nt,nt
Calb FLC,1,7,-34,-2,12,14
ALR inh,-11,-10,-8,-13,nt,-1
Ecoli rRNA inh,nt,-20,nt,nt,nt,nt
Ecoli rRNA inh OD600,nt,-18,nt,nt,nt,nt
Ecoli rRNA inh RFP,nt,-24,nt,nt,nt,nt
AF4-AF9 inh,nt,6.7,nt,nt,nt,nt
T cruzi repl,3,-14,13,-1,-2,14
Beta apoptosis,-5,0,-2,1,-10,4

#31 CC(NC(=O)COC(=O)CCc1nc(=O)c2ccccc2n1C)c1ccccc1 (stereo not drawn)
#32 Nc1ncnc(N(c2ccccc2)C2CCCCC2)c1[N+](=O)[O-]
#33 Cn1c(CCNC(=O)C2CCCCC2)nc2cc([N+](=O)[O-])ccc21
#34 CC(=O)Nc1ccc(/C=C(\C#N)C(=O)NC2CCCCC2)cc1
#35 Cn1c2ccccc2c(=O)c2c(=O)n(-c3ccc(F)cc3)c(-c3cccs3)nc21
#36 COc1cc(C=O)ccc1Oc1nnnn1-c1ccccc1
Compound,31,32,33,34,35,36
RanGTP-Impb inh,-2.8,-1.7,0.8,4.9,1.2,0.9
FGF22 binding,i,nt,i,i,i,i
Calb FLC,2,-2,-10,2,2,-5
ALR inh,1,-4,-1,12,-42,4
Ecoli rRNA inh,15,nt,2,-26*,17,-1
Ecoli rRNA inh OD600,1,nt,6,-15*,7,1
Ecoli rRNA inh RFP,0.9,nt,-1.8,4.3*,2.5,-2.2
AF4-AF9 inh,0.8,nt,-0.2,1.7,-1.6,-18
T cruzi repl,-14,5,-4,-21,12,3
Beta apoptosis,-7,-15,0,-8,3,-3

#37 Cc1[nH]n(-c2ccc([N+](=O)[O-])cc2)c(=O)c1C=NCCN1CCN(C(=O)c2ccc(Br)cc2)CC1
#38 O=C(Nc1nc2ccccc2n1CCN1CCOCC1)c1ccc(Cn2cc([N+](=O)[O-])cn2)o1
#39 COc1ccc([N+](=O)[O-])cc1NC(=O)C1CCCNC1=O (stereo not drawn)
#40 O=C(COC(=O)c1ccc2ccccc2c1O)NCC(F)(F)F
#41 CCC(C)(C(=O)NC1CCCC1)N(C(=O)CNC(C)=O)c1ccccc1 (stereo not drawn)
#42 O=C(C1CCN(c2ncnc3c2sc2cccc(F)c23)CC1)N1CCOCC1
Compound,37,38,39,40,41,42
RanGTP-Impb inh,-1.5,-2.2,6.0,-1.0,6.7,6.4
FGF22 binding,nt,i,i,i,nt,i
Calb FLC,-18,24,12,11,22,-1
ALR inh,-14,-3,-3,-25,-2,-46
Ecoli rRNA inh,nt,7,14,0,nt,-10
Ecoli rRNA inh OD600,nt,12,18,1,nt,-22
Ecoli rRNA inh RFP,nt,3.7,1.2,-3.2,nt,1.1
AF4-AF9 inh,nt,1.3,-1.2,0.3,nt,-15
T cruzi repl,66*,-11,1,2,-8,4
Beta apoptosis,42,-4,-1,-2,0,12

#43 CC(=O)N1CC=CC1(CC(C)C)C(=O)NCCc1c[nH]c2ccccc12 (stereo not drawn)
#44 CCCn1c(/C=C/c2cc[n+](C)cc2)nc2ccccc21
#45 O=C(CSc1nc(-c2ccc(F)cc2)cc(C(F)(F)F)n1)NCc1cccs1
#46 COc1ccc(C(=O)NC(=S)Nc2ccc(N3CCCC3)cc2)cc1
#47 Cc1ccc(SCCCCN2C(=O)NC(C)(C)C2=O)cc1
#48 COC(=O)CCC(=O)OC1(C)C(=O)C2=CN(Cc3ccccc3)C(c3ccc(OC)cc3)=CC2=C(Br)C1=O (stereo not drawn)
Compound,43,44,45,46,47,48
RanGTP-Impb inh,?,-154,-1.9,5.6,3.8,4.6
FGF22 binding,i,i,nt,nt,nt,i
Calb FLC,-10,-7,18,3,6,24
ALR inh,10,-34,nt,-7,-9,nt
Ecoli rRNA inh,4,19,nt,11,nt,9
Ecoli rRNA inh OD600,5,17,nt,8,nt,7
Ecoli rRNA inh RFP,-6.6,0.1,nt,1.0,nt,9.5
AF4-AF9 inh,-1.1,-1.9,nt,-0.8,nt,nt
T cruzi repl,30,13,15,27,20,2
Beta apoptosis,3,0,1,10,nt,-2
